Bioassay records as filed in PubChem.
VDR inhibitor = vitamin D3 receptor (human) inhibition; P11473; VDR-SRC2-3 peptide fluorescence polarization, 2 h; Potency, µM, for inactives: max response, negative = inhibition, actives largely listed as inhibitors; 400,000 tested, 0.93% active; AID 504847; active means well fitted inhibition curve with a large enough effect; inconclusive means small, poorly fitted or top-dose-only effect, or another doubt; inactive means no such curve, though single readings can be large or run the other way; further: series mostly up to about 120 µM
Target sequence (P11473 whole entry, looked up): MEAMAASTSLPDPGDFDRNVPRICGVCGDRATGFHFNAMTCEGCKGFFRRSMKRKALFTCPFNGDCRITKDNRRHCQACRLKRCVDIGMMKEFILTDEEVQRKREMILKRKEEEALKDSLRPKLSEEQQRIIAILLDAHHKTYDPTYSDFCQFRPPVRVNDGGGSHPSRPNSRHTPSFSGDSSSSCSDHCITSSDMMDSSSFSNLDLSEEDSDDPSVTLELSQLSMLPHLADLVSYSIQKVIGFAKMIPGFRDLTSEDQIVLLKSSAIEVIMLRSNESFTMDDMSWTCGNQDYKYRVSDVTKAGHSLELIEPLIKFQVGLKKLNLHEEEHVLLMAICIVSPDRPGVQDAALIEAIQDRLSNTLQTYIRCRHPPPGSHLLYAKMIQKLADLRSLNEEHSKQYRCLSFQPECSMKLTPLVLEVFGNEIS
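The screen uses fluorescence polarization to detect compounds that interfere with recruitment of the SRC2-3 coactivator peptide to VDR; plates are read after 2 h at room temperature.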
* hit, by the source's call; ? = inconclusive; & = joins results of further samples; [ ] = another dose, or the depositor's remark. On the % scale 0 is the no-effect control and ±100 the full control effect; potency means the concentration at half of the fitted maximal effect. The list is partial; count on the stated rates, not on these rows.

SMILES | VDR inhibitor
COc1ccc(C(=O)c2cn(Cc3ccc(F)cc3)c3c(F)cc(F)cc3c2=O)cc1 | 20%
CC1CC(C)CN(c2ncnc3c2cnn3Cc2ccc(Cl)cc2)C1 (configuration not stated) | -2%
OCCCNc1c2c(nc3cc(-c4ccc(Cl)cc4)nn13)CCC2 | -4%
Cc1cc(C(=O)OCC(=O)Nc2cc(C)on2)c2ccccc2n1 | -7%
O=[N+]([O-])c1cc(S(=O)(=O)N2CCCC2)ccc1O | 0%
C=CCOc1ccc(/C=N/NC(=O)c2cc3c(OC)cc(OC)cc3[nH]2)cc1 | -14%
COc1ccc2c(Cl)c(-c3nnc4n3CCCCC4)sc2c1 | 9%
Cc1ccc(S(=O)(=O)n2nc(C)c(S(=O)(=O)N3CCCCC3)c2C)cc1 | 11%&3%
Cc1ccc(S(=O)(=O)N2CCOCC2)cc1NC(=O)COc1ncnc2ccccc12 | -3%
O=C1C(=Cc2cccn2-c2ccccc2)C(=O)c2ccccc21 | -24%
CCCCc1c(C)nc2ccc(C(=O)OCC)cc2c1Cl | -2%
CC(C)Cc1nnc(NC(=O)C2CCN(C(=O)c3ccc(F)cc3)CC2)s1 | -8%

Additional records follow.
SMILES | VDR inhibitor
Cc1ccn(CCNC(=O)C2CCC(=O)N(CCc3ccc(Cl)cc3)C2)n1 (configuration not stated) | 9%
Cc1ccc(/C=N/NC(=O)c2ccc3nc[nH]c3c2)o1 | 14%
COc1cc(NC(=O)C/C(C)=N/NC(=O)C2CCCCC2)c(OC)cc1Cl | -3%
CCC(C)N1CCNCC1 (configuration not stated) | 25%
Cc1ccc2c(c1)C(c1ccccc1)N(C(=O)c1ccc(Br)o1)CC(=O)N2 (configuration not stated) | -1%
Cc1ccc(C2(C)NC(=O)N(CC(=O)Nc3ccccc3C(=O)N3CCCCC3)C2=O)cc1 (configuration not stated) | -15%
CCOc1ccc(CCNC(=O)C2CCN(C(=O)N(C)C)CC2)cc1OCC | 35%
COc1ccc(Cl)cc1NC(=O)C(=O)NC1CCCCCC1 | -10%
CCOc1ccc(CCNS(=O)(=O)c2cc(Br)cc3c2N(C(C)=O)CC3)cc1OCC | 0%
COc1c(Cl)cc(Br)c(OC)c1C(=O)NC(=O)Nc1nc(C)cc(C)n1 | 3%
COCCCn1c(=O)c2sccc2n2c(CCCC(=O)NCc3ccc(F)cc3)nnc12 | 2%&-2%
O=C(COC(=O)c1ccc2ncsc2c1)Nc1ccc(Cl)cc1 | 3%

Among those listed so far, these have a thiophene ring, fused or not.
SMILES | VDR inhibitor
COc1ccc2c(Cl)c(-c3nnc4n3CCCCC4)sc2c1 | 9%
COCCCn1c(=O)c2sccc2n2c(CCCC(=O)NCc3ccc(F)cc3)nnc12 | 2%&-2%

Continuation:
SMILES | VDR inhibitor
COc1ccc(-n2ccnc(SCC(=O)NCc3ccccc3Cl)c2=O)cc1 | ?
Cc1cccc(NC(=O)N2CCC(CN3CCCCCC3)CC2)c1C | 0%
COc1ccc2[nH]c(=O)c(C(=O)O)cc2c1 | -9%
COc1ccc2c(c1)OC[C@H]1[C@H]2N2C(=O)c3ccc(F)cc3NC(=O)[C@@]2(C)[C@H]1c1ccccc1 | -5%
S=C(Nc1ccccc1)N1CCc2ccccc21 | -26%
Cc1c(C(=O)Cc2ccccc2)n(C)c2ccccc12 | -7%
CC(=O)c1ccc(N(C)C)cc1 | 1%
CCOc1cc(S(=O)(=O)n2ccnc2)ccc1Cl | 11%
C[C@@H](NC(=O)Cn1ccc(NC(=O)OCc2ccccc2)nc1=O)c1cccc2ccccc12 | -1%
Nc1ccc(Oc2c(Cl)cccc2Cl)nc1 | 1%
Cc1cc(Br)ccc1OCCNCc1ccccc1 | -5%
O=C1c2ccccc2C(=O)N1CCc1nc(-c2cccnc2)no1 | 1%

Individual results from the results shown:
Entry of `Cc1cc(Br)ccc1OCCNCc1ccccc1` under VDR inhibitor: -5%
Entry of `CCOc1cc(S(=O)(=O)n2ccnc2)ccc1Cl` under VDR inhibitor: 11%
Entry of `Cc1cccc(NC(=O)N2CCC(CN3CCCCCC3)CC2)c1C` under VDR inhibitor: 0%
Entry of `COc1ccc2c(c1)OC[C@H]1[C@H]2N2C(=O)c3ccc(F)cc3NC(=O)[C@@]2(C)[C@H]1c1ccccc1` under VDR inhibitor: -5%

(more compounds)
SMILES | VDR inhibitor
CCc1nnc(NC(=O)c2ccc(OCc3c(C)noc3C)c(OC)c2)s1 | -1%
COc1ccc(CS(=O)/C(Cl)=C(/Cl)C(=O)Nc2ccc(OC)nc2)cc1 (configuration not stated) | 20µM*
CC1(c2ccc(Cl)cc2)NC(=O)N(CC(=O)Nc2cccnc2Cl)C1=O (configuration not stated) | 0%
CSc1nc2ccc(NC(=O)c3ccc(=O)n(C)n3)cc2s1 | -8%
Cc1oc(C(C)(C)C)cc1C(N)=O | 30%[activator]
COc1ccc(-n2cc(CNCCCn3ccnc3)c(-c3ccccc3Cl)n2)cc1 | 16%
C=CCNC(=O)CN1CCC(NC(=O)c2ccco2)CC1 | -11%
Cc1cc(O)ccc1NS(=O)(=O)c1ccc2c3c(cccc13)C(=O)N2 | -19%
O=C(/C=C/c1ccc(Br)cc1)NCc1cccs1 | 5%
CN1CCN(C(=O)c2sc(=S)n(-c3ccccc3)c2N)CC1 | 45µM*
O=C(O)c1ccccc1C=NNc1ccc([N+](=O)[O-])cn1 | -5%
CCOC(=O)C1CCN(C(=S)Nc2ccccc2)CC1 | 0%

Carrying on:
SMILES | VDR inhibitor
Nc1ncnc2c1ncn2[C@@H]1O[C@H](CNCc2ccccc2OC2OC(CO)C(O)C(O)C2O)[C@@H](O)[C@H]1O (some centres not stated) | -22%
CC1CN(C(=O)c2cc(-c3ccc(Cl)s3)nc3ccccc23)CC(C)O1 (configuration not stated) | -9%
CC(C)C(C)(C#N)NC(=O)CSc1nc(C2CCCCC2)n(-c2ccccc2)n1 (configuration not stated) | 21%
CC1CCC(NC(=O)C2CC(O)CN2S(=O)(=O)c2ccc([N+](=O)[O-])cc2)CC1 (configuration not stated) | 9%
CC(/C=C/c1ccco1)=N\NC(=O)C(O)c1ccccc1 (configuration not stated) | ?
CC(C)CCNC(=O)c1cnn2c(C(F)(F)F)cc(-c3ccco3)nc12 | -15%
N/C(=N\OC(=O)c1cc([N+](=O)[O-])ccc1Cl)c1cccnc1 | -8%
O=C(NC(=S)N1CCN(Cc2ccc3c(c2)OCO3)CC1)c1cccc(Br)c1 | -30%
CCOC(=O)c1ccccc1NS(=O)(=O)c1ccc(N2CCCCS2(=O)=O)cc1 | 12%
O=C(NCc1ccco1)Nc1ccc2snnc2c1 | -15%
CC(Nc1oc(-c2ccc(COc3ccc(Cl)cc3)o2)nc1C#N)c1ccccc1 (configuration not stated) | 2%
Cc1ccc(/S(C)=N/S(=O)(=O)c2ccc(C)cc2)cc1 (configuration not stated) | -1%

Further compounds follow.
SMILES | VDR inhibitor
COC(=O)C1=C(C)N(CCc2ccc(OC)cc2)C(=O)C1 | 3%
NC(=O)CSc1nnc(-c2cccs2)n1Cc1ccco1 | -13%
Cn1cccc1C(=O)N1CCC2(CCN(Cc3ccncc3)CC2)CC1 | 4%
O=C(COc1ccccc1[N+](=O)[O-])N/N=C/c1ccc(O)cc1 | 6%
CN(c1ccc(F)cc1)S(=O)(=O)c1ccc(Cl)c(C(=O)NCC2CCCO2)c1 (configuration not stated) | -16%
COc1ccccc1-n1nnnc1SCC(=O)N(CC(C)C)C1CCS(=O)(=O)C1 (configuration not stated) | -13%
CC(=O)c1c(C)[nH]c(C(=O)N2CCCCCC2)c1C | -28%
CCC(=O)Nc1cccc(C2=NOC3(C2)C[C@@H](C(N)=O)N(C(=O)c2cc([N+](=O)[O-])cc([N+](=O)[O-])c2)C3)c1 (some centres not stated) | -16%
CCn1c(=O)c2cc(C(=O)Nc3ccccc3OC)sc2c2ccccc21 | -24%
CCN(CC)S(=O)(=O)c1cc(NC(=O)CNc2cccc(S(=O)(=O)N3CCOCC3)c2)ccc1C | 6%
O=C1CNc2ccc(C(=O)N3CCN(c4ccccn4)CC3)cc2N1 | -28%
CN(Cc1cccs1)C(=O)c1cccc(S(=O)(=O)N2CCCCCC2)c1 | -3%

(more compounds)
SMILES | VDR inhibitor
COc1cc([C@H]2Oc3c(OC)cc(CCCO[C@@H]4O[C@H](CO)[C@@H](O)[C@H](O)[C@H]4O)cc3[C@@H]2CO)ccc1O | -9%
O=C(O)C1Cc2ccccc2CN1C(=O)c1ccco1 (configuration not stated) | -5%
O=C(CCNC(=O)c1ccc(Cl)cc1)NCC(c1ccco1)N1CCCC1 (configuration not stated) | -2%
Cc1c(C(=O)c2ccc(Cl)cc2Cl)cnc2cc3c(cc12)OCO3 | ?
Cc1ccc(OCCN2C(=O)C(=O)c3cccc(C)c32)cc1 | -16%
CCOC(=O)c1oc2ccccc2c1NC(=O)COC | -7%
COc1ccc(/C=C2\SC(=S)NC2=O)cc1OS(=O)(=O)c1ccc(NC(C)=O)cc1 | -14%
O=[N+]([O-])c1cc(S(=O)(=O)C(F)(F)F)ccc1NCC1CCCO1 (configuration not stated) | 10%
CC(C)c1ccc(NC2CCCN(C(=O)CN3CCOC3=O)C2)cc1 (configuration not stated) | 3%
COC(=O)C1=C(C)N(c2ccc(OC)c(OC)c2)C(=O)/C1=C\c1cccs1 | -1%
CCOC(=O)c1c(N2C(=O)Nc3ccccc3N2O)sc2c1CCCC2 | -6%
O=C(Nc1cccc(C(=O)N2CCCc3ccccc32)c1)c1ccccc1 | -5%

Following part
SMILES | VDR inhibitor
CC(C)C(NS(=O)(=O)c1cccc(C(F)(F)F)c1)C(=O)N1CCc2ccccc2C1 (configuration not stated) | -15%
CC(C)c1[nH]nc2c1C(c1cccc(OC(=O)N3CCOCC3)c1)C(C#N)=C(N)O2 (configuration not stated) | 7%
Cn1c(COc2ccc(Cl)cc2Cl)nnc1SCC(=O)NCC1CCCO1 (configuration not stated) | 19%
CN(CC(=O)Nc1c(Cl)cccc1Cl)C(=O)CNC(=O)c1ccc2c(c1)OCO2 | -2%
Cc1ccc(CCNC(=O)C2CCC(=O)N2CCc2ccccc2)cc1 (configuration not stated) | 3%
COC(=O)c1c(S(=O)(=O)N2CCOCC2)c(C)n(C)c1C | 11%
Cc1cccc(N2C(=O)CC(c3ccc(F)cc3)C3=C2COC3=O)c1 (configuration not stated) | 0%&7%
CCCN1C(=O)c2ccccc2NC1c1cc(OC)c(OC)c(OC)c1 (configuration not stated) | -14%
N#C/C(=C\c1ccc(O)c(O)c1)C(=O)OCCc1cccs1 | ?
COC(=O)Cn1c(=NC(=O)CSCC(=O)NC2CCCCC2)sc2cc(OC)ccc21 | 1%
O=C(c1ccccc1)N1CCN(C2CC(=O)N(CCc3ccccc3)C2=O)CC1 (configuration not stated) | 13%
Cc1cccc(-c2ccc3c(c2)C2CC3CCN2)c1 (configuration not stated) | -2%

Some of the entries above in a different format:
> Cc1cccc(NC(=O)N2CCC(CN3CCCCCC3)CC2)c1C
  VDR inhibitor: 0%

> COc1ccc2[nH]c(=O)c(C(=O)O)cc2c1
  VDR inhibitor: -9%

Further records
SMILES | VDR inhibitor
O=C(Nc1cccc(O)c1)c1cc(-c2cccs2)on1 | 9%
CCN(C(=O)C1CCCN1S(=O)(=O)c1cccc2nsnc12)c1ccccc1 (configuration not stated) | -23%
Brc1ccccc1-c1nnc(SCc2nc3ccccc3s2)o1 | -13%
CC(C)CCNC(=O)CN(Cc1cccs1)C(=O)CCC(=O)Nc1nccs1 | -9%
O=C(O)c1cc(-n2nnnc2SCc2ccc([N+](=O)[O-])cc2)ccc1Cl | -20%
O=C(NCCN1CCOCC1)c1cc([N+](=O)[O-])cc([N+](=O)[O-])c1 | -15%
Cc1ccc(-n2nnnc2C(=Cc2ccc(N(C)C)cc2)c2nnnn2-c2ccc(C)cc2)cc1 | 20%
COc1ccccc1NS(=O)(=O)c1ccc(N/N=C/c2ccccc2OCC(=O)O)c([N+](=O)[O-])c1 | -13%
COc1ccc(NC(=O)C2CC2)cc1NS(=O)(=O)c1ccc(F)cc1 | 4%
N/C(CN1CCCC1=O)=N\OC(=O)c1ccc(Cl)c(Cl)c1 | -17%
CCc1ccc(NC(=O)CCNC(=O)Cn2ccc3ccccc3c2=O)cc1 | -18%
CCOc1ccc(C(=O)CCC(=O)O)cc1 | 3%

The list goes on.
SMILES | VDR inhibitor
CCCOc1cccc(-c2cc(C(=O)NNC(=S)NCC)c3ccccc3n2)c1 | -13%
C[C@]12c3[nH]c4cc(-c5ccco5)ccc4c3CCN1C(=O)[C@@H](CC(=O)NCCc1ccccn1)C[C@@H]2C(=O)N1CCOCC1 | -9%
FC(F)(F)c1cccc(Sc2cc(C(F)(F)F)nc(-c3ccccn3)n2)c1 | -4%
Cc1ccc(CS(=O)Cc2ccc(C(=O)NCc3ccc4c(c3)OCO4)o2)cc1 (configuration not stated) | -8%
COc1ccc(C2(N3CCN(c4cc(C)ccc4C)CC3)C(=O)c3ccccc3C2=O)cc1 | 0%
Nc1nonc1-n1nnc(C(=O)N/N=C/C=C/c2ccccc2)c1CSC1=NCCS1 | -11%
Cc1c(C)c2cc(Cl)c(OCc3nn[nH]n3)cc2oc1=O | 3%
Cc1ccc(-n2nc3c(c2NC(=O)c2ccc4c(c2)OCO4)CS(=O)C3)cc1 (configuration not stated) | -1%
COc1ccc(NC(=O)c2cccc(NC(=O)c3ccccc3)c2)cc1 | 27%
CCc1sc(C(=O)NC2CCN(C)CC2)cc1Br | 5%
O=C(CSC1=Nc2ccccc2N=C(c2ccc(F)cc2)C1)NCc1ccccc1 | -12%
CC(=O)c1cc(CN2CCCCC2)cc(OC(C)C)c1 | -11%

More results:
SMILES | VDR inhibitor
COc1cc2c(cc1OC)C(C)N(C(=O)c1cccs1)CC2 (configuration not stated) | -19%
O=C(Cn1c(=O)n(Cc2ccccc2)c(=O)c2sc3ccccc3c21)Nc1ccc(F)cc1 | -14%
CCNC(=O)c1sccc1-n1cccc1 | -16%
C=CCSc1ncc(C#N)c(N)n1 | 3%
CCOc1ccc(-c2nc(CCl)cs2)cc1OC | -4%
O=C1c2ccccc2-c2c1cccc2C(=O)N1CCCCCC1 | -4%
